GLA inh pH 4.5 – alpha-galactosidase A (human) inhibition, pH 4.5; AID 1467; activity change, negative = inhibition, % at 105 µM; purified enzyme, 4-MU-alpha-Gal fluorescence, pH 4.5; 230,000 tested, under 10 active; P06280; inconclusive = small, poorly fitted or top-dose-only inhibition, or a rising curve; inactive = flat fitted curve, though single readings scatter; no compound was filed as active;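 further: 0% = full activity with enzyme and -100% = basal without enzyme; dose as in the result columns while the protocol names 77 µM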
Target sequence (P06280 whole entry, looked up): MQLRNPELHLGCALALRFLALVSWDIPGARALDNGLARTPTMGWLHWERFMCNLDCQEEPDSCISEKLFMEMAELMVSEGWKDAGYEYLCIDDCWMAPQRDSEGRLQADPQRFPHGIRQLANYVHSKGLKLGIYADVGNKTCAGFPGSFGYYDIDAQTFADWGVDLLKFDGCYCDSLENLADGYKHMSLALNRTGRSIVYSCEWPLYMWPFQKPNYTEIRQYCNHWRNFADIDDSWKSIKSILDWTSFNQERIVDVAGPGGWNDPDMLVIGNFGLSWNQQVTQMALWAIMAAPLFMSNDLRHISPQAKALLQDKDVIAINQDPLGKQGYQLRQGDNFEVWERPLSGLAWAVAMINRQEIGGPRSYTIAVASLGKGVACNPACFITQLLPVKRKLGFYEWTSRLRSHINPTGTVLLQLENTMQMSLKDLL
Rango-impB inh – prevents formation of the Rango-importin beta complex | 0.031% of 340,000 active | Q14974 | AID 540263 | Rango CFP/YFP FRET sensor + importin beta, 45 min | Potency, µM (top dose mostly 92.2 µM), for inactives: at the highest dose inhibition of complex formation; active = rising FRET ratio curve, often small or poorly fitted; inconclusive = mostly compound fluorescence or quenching in the first reads; inactive = flat curves in all reads;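 further: potency means the concentration at half of the fitted maximal effect; 0% = DMSO wells and 100% = buffer wells lacking importin beta; nearly all actives have a fitted effect of over 15% in size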
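FRET biosensor Rango (snurportin 1 IBB between N-terminal EYFP and C-terminal Cerulean), 50 nM in PBS/1 mM DTT/0.02% Tween-20/0.1% BSA, preincubated 5 min RT with compound; 0.125 microM importin beta added, 45 min RT, CFP/YFP FRET ratio read.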
Rango release inh – prevents RanGTP from dissociating the Rango-importin beta complex; O95149+P62826; Biochemical FRET Rango-importin beta, RanGTP-induced dissociation; Potency, µM (series often up to 46.1 µM), for inactives: at the top dose activity change, negative = inhibition; 0.071% of 340,000 active; AID 540253; active means falling FRET ratio curve, often poorly fitted, with flat reads before Ran was added; inconclusive means other falling curves, or compound fluorescence or quenching; inactive means flat or rising ratio curve;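 further: potency means the concentration at half of the fitted maximal effect; % of control where 0% means no effect; nearly all actives have a fitted effect of over 45% in size; -100% = wells without RanGTP and RCC1; the record marks most hits as doubtful in a second field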
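Recombinant Rango FRET biosensor (EYFP–snurportin 1 IBB–cerulean CFP10) at 0.1 uM premixed with 0.25 uM importin beta in PBS, 1 mM DTT, 0.02% Tween-20, 0.1% BSA. Compound added 5 min; RanGTP-RCC1 (0.6 uM Ran, 2 mM GTP, 0.2 uM RCC1) then triggers release, read at 45 min.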
miR-21 reporter – raises the signal of a miR-21 reporter | 340,000 tested, under 10 active | Potency, µM (highest dose often 38.3 µM), inactives show at the highest dose reporter change, positive = more light | HeLa miR-21 FLuc reporter, luciferase, 48 h | AID 2288; active = well fitted rising curve with a large enough effect; inconclusive = small, poorly fitted or top-dose-only effect; inactive = no such curve, though single readings can be large or run the other way;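 further: % of control where 0% means no effect; miR-21 action dims this reporter so a rising signal means less miR-21 action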
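Using DMEM plus 10% FBS, HeLa miR-21-FLuc cells are incubated with test compounds (final up to about 40uM) for 48 hours; firefly luciferase signal is then imaged following reagent-mediated lysis.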
Active calls of the source: *. A portion of the library. The share of hits here may be higher or lower than overall.

CC(=O)c1ccc(OC(NC(=O)c2ccco2)C(Cl)(Cl)Cl)cc1 (stereo not given) was read as GLA inh pH 4.5 -21, Rango-impB inh -3.8%, Rango release inh 0% and miR-21 reporter 3%.
Screening CCCCCCC(=O)N/N=C/c1c(O)n(C2CC2)c(=S)[nH]c1=O returned GLA inh pH 4.5 1, Rango-impB inh -0.1%, Rango release inh -11% and miR-21 reporter 0%.
O=c1[nH]c(=S)[nH]c(O)c1N=Nc1ccc(-c2ccccc2)cc1[N+](=O)[O-] was read as GLA inh pH 4.5 -15 and miR-21 reporter -49%.
For CN1CC=C(c2c[nH]c3ccccc23)CC1 the results were GLA inh pH 4.5 -1, Rango-impB inh 3.2%, Rango release inh -23% and miR-21 reporter -3%.
For CN1CCN(c2cc(N3CCCCCC3)c(F)cc2[N+](=O)[O-])CC1 the results were GLA inh pH 4.5 -2, Rango-impB inh 2.0%, Rango release inh 0% and miR-21 reporter 14%.
`COc1cc(/C=C/c2nc3ccccc3c(=O)n2-c2cccc(O)c2)ccc1O` gave GLA inh pH 4.5 -27, Rango-impB inh inconclusive, Rango release inh inconclusive and miR-21 reporter 12%.
For CN1CCN(c2cc(N3CCCC3)c([N+](=O)[O-])cc2F)CC1 the results were GLA inh pH 4.5 -9, Rango-impB inh -2.2%, Rango release inh 6% and miR-21 reporter 1%.
Oc1ccccc1CN(CCc1ccccc1)Cc1ccccc1 was read as Rango-impB inh 0.0%, Rango release inh 4% and miR-21 reporter -4%.
For CCN(CC)CCN=Cc1c(O)n(CCc2ccccc2)c(=O)[nH]c1=O the results were GLA inh pH 4.5 -13, Rango-impB inh 0.1%, Rango release inh 1% and miR-21 reporter -2%.
C=CCn1c(O)c(C(C)=NC2CCN(Cc3ccccc3)CC2)c(=O)[nH]c1=O was read as GLA inh pH 4.5 -1, Rango-impB inh -0.3%, Rango release inh 14% and miR-21 reporter -1%.
For COc1ccc(Cn2c(N)c(C(=O)NCc3ccco3)c3nc4ccccc4nc32)cc1OC the results were GLA inh pH 4.5 1, Rango-impB inh inconclusive, Rango release inh inconclusive and miR-21 reporter -5%.
`CCOP(=O)(Cc1ccc(C(=O)CC)o1)OCC` gave GLA inh pH 4.5 -3, Rango-impB inh -7.9%, Rango release inh 6% and miR-21 reporter -1%.
For C[C@]12CCC3C(CC[C@H]4C[C@@H](O)CC[C@]34C)C1CC[C@@H]2OC(=O)[C@H](N)CCCCN (stereo not given in full) the results were Rango-impB inh -1.6% and Rango release inh 15%.
CC(=NC1CCN(Cc2ccccc2)CC1)c1c(O)n(C)c(=O)n(C)c1=O was read as GLA inh pH 4.5 0, Rango-impB inh -3.9%, Rango release inh -1% and miR-21 reporter -4%.
Screening CC(C)CCN1CCN(Cc2c(F)cccc2Cl)CC1CCO (stereo not given) returned GLA inh pH 4.5 1, Rango-impB inh -0.7%, Rango release inh 47% and miR-21 reporter -12%.

The list goes on; the last two above are carried over.
CC(=NC1CCN(Cc2ccccc2)CC1)c1c(O)n(C)c(=O)n(C)c1=O was read as GLA inh pH 4.5 0, Rango-impB inh -3.9%, Rango release inh -1% and miR-21 reporter -4%.
Screening CC(C)CCN1CCN(Cc2c(F)cccc2Cl)CC1CCO (stereo not given) returned GLA inh pH 4.5 1, Rango-impB inh -0.7%, Rango release inh 47% and miR-21 reporter -12%.
COc1cc(OC)c(OC)cc1/C=C1\C(=O)NC(=O)N(Cc2ccccc2)C1=O was read as GLA inh pH 4.5 8, Rango-impB inh inconclusive, Rango release inh inconclusive and miR-21 reporter 4%.
`c1ccc(CN2CCN(Cc3ccc4c(c3)OCCO4)CC2)cc1` gave GLA inh pH 4.5 2, Rango-impB inh -4.4%, Rango release inh 0% and miR-21 reporter -12%.
O=C(CN1CCOCC1)Nc1ccc(Br)cc1C(=O)c1ccccc1 was read as GLA inh pH 4.5 0, Rango-impB inh -4.5%, Rango release inh -13% and miR-21 reporter -2%.
`CCN(CC)CCO` gave Rango-impB inh -0.3% and Rango release inh 0%.
`OC(c1ccncc1)(c1ccc(F)cc1)c1ccc(F)cc1` gave GLA inh pH 4.5 -2, Rango-impB inh -0.8%, Rango release inh 0% and miR-21 reporter -9%.
`Cc1cc(C(=O)OCC(=O)Nc2cccc(F)c2)c(C)n1C1CC1` gave Rango-impB inh 2.8% and Rango release inh 7%.
COc1ccc(NP2(=O)NCCCN2)cc1 was read as Rango-impB inh -2.7% and Rango release inh -4%.
COc1ccccc1[As](=O)(O)CC(O)COc1ccc(Cl)cc1Cl (stereo not given) was read as GLA inh pH 4.5 3 and miR-21 reporter 3%.
Screening COc1ccc(-c2nc3ccccc3c(=O)n2-c2nccs2)cc1 returned GLA inh pH 4.5 1, Rango-impB inh 3.5%, Rango release inh -12% and miR-21 reporter -13%.
COC(=O)C1=C(c2ccc(OCc3ccccc3)cc2)C[C@@H]2CC[C@H]1N2C(=O)NCc1cccc(C(F)(F)F)c1 was read as Rango-impB inh inconclusive and Rango release inh -1%.
For O=c1c2ccccc2nc(-c2ccco2)n1-c1nccs1 the results were GLA inh pH 4.5 -7, Rango-impB inh -1.5%, Rango release inh -5% and miR-21 reporter -5%.
Screening Oc1ccc2ccccc2c1CN1CC=C(c2ccccc2)CC1 returned GLA inh pH 4.5 9, Rango-impB inh 4.6%, Rango release inh 4% and miR-21 reporter -3%.
Cc1ccccc1NC(=S)NC(NC(=O)CF)C(Cl)(Cl)Cl (stereo not given) was read as GLA inh pH 4.5 2, Rango-impB inh 6.2%, Rango release inh -1% and miR-21 reporter -3%.
`COc1ccc(NC(c2ccccc2F)P(=O)(Oc2ccccc2)Oc2ccccc2)cc1` (stereo not given) gave GLA inh pH 4.5 -8, Rango-impB inh 2.9%, Rango release inh 1% and miR-21 reporter -6%.
Screening c1ccc(C2CN3CCC2CC3)cc1 (stereo not given) returned GLA inh pH 4.5 -1, Rango-impB inh 4.4%, Rango release inh -30% and miR-21 reporter -1%.
Cc1cccc(N2C(=O)NC(=O)/C(=C\c3cnn(-c4ccccc4)c3)C2=O)c1 was read as GLA inh pH 4.5 8, Rango-impB inh 1.9%, Rango release inh -16% and miR-21 reporter 3%.
Screening N#Cc1c(/N=C/c2c(O)n(Cc3ccco3)c(=O)[nH]c2=O)sc2c1CCCC2 returned GLA inh pH 4.5 -4, Rango-impB inh inconclusive, Rango release inh -29% and miR-21 reporter -6%.
Screening COc1ccc(CC(C)NCCC(c2ccccc2)c2ccccc2)cc1 (stereo not given) returned Rango-impB inh 12%, Rango release inh 1% and miR-21 reporter 24%.
For N#Cc1ccccc1Cn1cc(C(=O)c2cccs2)c2ccccc21 the results were GLA inh pH 4.5 0, Rango-impB inh -3.2%, Rango release inh -10% and miR-21 reporter -6%.
COc1ccc(-c2n[nH]c(=S)n2-c2ccc3c(c2)OCCO3)cc1OC was read as GLA inh pH 4.5 -4, Rango-impB inh 1.8%, Rango release inh 1% and miR-21 reporter -60%.
CC1=C(C)CC2(CC1)C(=O)NC(=O)NC2=O was read as Rango-impB inh -0.2% and Rango release inh -10%.
`COC(=O)C1=C(c2c(C)noc2C)C[C@@H]2CC[C@H]1N2C(=O)NCCOc1ccc(OC)cc1` gave Rango-impB inh inconclusive and Rango release inh -17%.
Screening Cc1oc(/N=C/c2ccc3c(c2)OCO3)c(C#N)c1C returned GLA inh pH 4.5 3, Rango-impB inh inconclusive, Rango release inh -23% and miR-21 reporter -3%.
`CC(Cc1ccccc1)NC(=O)/C=C/c1ccc(Cl)cc1` (stereo not given) gave GLA inh pH 4.5 -12, Rango-impB inh -7.5%, Rango release inh -11% and miR-21 reporter -33%.
Cc1c2cnn(CC(=O)N3CCC4(CC3)OCCO4)c(=O)c2c(C)n1Cc1ccccc1Cl was read as Rango-impB inh 2.0%, Rango release inh 1% and miR-21 reporter -12%.
`COc1ccc(Oc2c(C)oc3cc(OC(=O)N(C)C)ccc3c2=O)cc1` gave Rango-impB inh 2.3%, Rango release inh 6% and miR-21 reporter -1%.
`CC1=C(C(=O)Nc2ccccc2)S(=O)(=O)CCO1` gave GLA inh pH 4.5 -27, Rango-impB inh 6.8%, Rango release inh -4% and miR-21 reporter 26%.
CCOC(=O)C1C2c3ccccc3O[C@@]1(C)N=C1SCC(=O)N12 (stereo not given in full) was read as GLA inh pH 4.5 7, Rango-impB inh 0.9%, Rango release inh -17% and miR-21 reporter 4%.
`COc1ccc(OC)c(-n2c(O)c(/C=C3\C=Nc4ccccc43)c(=O)[nH]c2=O)c1` gave Rango-impB inh -1.4%, Rango release inh -1% and miR-21 reporter -2%.
For CNC(=O)O/N=C(\N)Cc1csc2ccccc12 the results were GLA inh pH 4.5 -4, Rango-impB inh 5.2%, Rango release inh 1% and miR-21 reporter 11%.
`C=C1C(O)(c2ccccc2)C2CC[N+]1(C)CC2` (stereo not given) gave GLA inh pH 4.5 3, Rango-impB inh -1.3%, Rango release inh -4% and miR-21 reporter 0%.
`O=c1c2ccccc2nc(-c2ccccc2Cl)n1-c1ccc(O)cc1` gave Rango-impB inh -0.9%, Rango release inh 11% and miR-21 reporter 16%.
`c1ccc(NC2=Nc3ccccc3CC2)cc1` gave GLA inh pH 4.5 6, Rango-impB inh -3.4%, Rango release inh inconclusive and miR-21 reporter -51%.
`Fc1cccc(F)c1-c1nc(-c2ccc(Cl)cc2)no1` gave GLA inh pH 4.5 -19, Rango-impB inh -1.6%, Rango release inh 0% and miR-21 reporter -28%.
`Cc1ccc(Sc2ccc(C=C3C(=O)N(C)C(=O)N(C)C3=O)o2)cc1` gave GLA inh pH 4.5 8, Rango-impB inh 1.8%, Rango release inh 1% and miR-21 reporter 0%.
For CC(C)N1C(=O)/C(=C/C=C/c2ccco2)C(=O)N(Cc2ccco2)C1=O the results were GLA inh pH 4.5 -6, Rango-impB inh inconclusive, Rango release inh -25% and miR-21 reporter -3%.
Screening CN(CC=CCN(C)P(=S)(N1CC1)N1CC1)P(=S)(N1CC1)N1CC1 returned Rango-impB inh 0.0% and Rango release inh 0%.
Screening CCN(CC)c1ccc(/C=C2\C(=O)NC(=S)N(C)C2=O)o1 returned GLA inh pH 4.5 -5, Rango-impB inh 16%, Rango release inh 13% and miR-21 reporter -63%.
`C=C1N2CCC(CC2)C1(O)c1ccc(C)cc1` (stereo not given) gave GLA inh pH 4.5 4, Rango-impB inh -1.2%, Rango release inh -2% and miR-21 reporter -1%.
For C/C(Cl)=C/CC1(CN2CCCC2=O)C(=O)NC(=O)NC1=O the results were GLA inh pH 4.5 4, Rango-impB inh -2.1%, Rango release inh -2% and miR-21 reporter 1%.
Screening COc1ccc2c(c1)C1(C(=O)O)CC=CCC1(C(=O)O)C2 (stereo not given) returned Rango-impB inh -0.1% and Rango release inh 15%.
`CCC(C)n1c(O)c(/C=N/N2CCOCC2)c(=O)[nH]c1=S` (stereo not given) gave GLA inh pH 4.5 5, Rango-impB inh inconclusive, Rango release inh -20% and miR-21 reporter 3%.
Screening Cc1ccc(CNCCc2ccccc2F)cc1 returned GLA inh pH 4.5 -1, Rango-impB inh -1.0%, Rango release inh -2% and miR-21 reporter -17%.
For COC(=O)C1=C(c2ccc(F)cc2OCc2ccccc2)C[C@@H]2CC[C@H]1N2C(=O)NCc1ccc(OC)c(OC)c1 the results were Rango-impB inh 0.8% and Rango release inh -20%.
Screening Cc1ccc2c(c1)=NC(=O)/C(=C/c1c(O)[nH]c(=O)[nH]c1=O)C=2 returned GLA inh pH 4.5 3, Rango-impB inh inconclusive, Rango release inh 2% and miR-21 reporter -3%.
`c1cnc(N2CCNCC2)nc1` gave GLA inh pH 4.5 -7, Rango-impB inh -3.6%, Rango release inh -12% and miR-21 reporter -1%.
For Cc1ccsc1C(=O)C1CCCN(Cc2ccc(O)cc2)C1 (stereo not given) the results were GLA inh pH 4.5 -9, Rango-impB inh -0.2%, Rango release inh -5% and miR-21 reporter 3%.
COc1ccc(CNC(=O)CCC(=O)N2C[C@H]3C[C@H](C2)c2cccc(=O)n2C3)cc1 was read as Rango-impB inh -0.4%, Rango release inh -8% and miR-21 reporter 2%.
For Cc1ccsc1C(=O)C1CCCN(Cc2cc(C(C)C)n[nH]2)C1 (stereo not given) the results were GLA inh pH 4.5 0, Rango-impB inh -2.5%, Rango release inh -14% and miR-21 reporter 5%.
CN1CCN(c2ccc([N+](=O)[O-])c(N/N=C3\CN4CCC3CC4)c2)CC1 was read as GLA inh pH 4.5 -5, Rango-impB inh -4.9%, Rango release inh -6% and miR-21 reporter -7%.
